Bioassay records (PubChem)
Sfp inh: inhibitors of Bacillus subtilis Sfp phosphopantetheinyl transferase | Potency, µM, for the others: max response, negative = inhibition, actives largely listed as inhibitors | Biochemical Sfp PPTase activity, qHTS | actives 3.5% (n = 310,000) | AID 1490; active = well fitted inhibition curve with a large enough effect; inconclusive = small, poorly fitted or top-dose-only effect, or another doubt; inactive = no such curve, though single readings can be large or run the other way;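 also: the enzyme is Sfp with the accession as filed and its product quenches rhodamine fluorescence; potency is read from the fitted curve at half-maximal effect; 0% = enzyme reaction without inhibitor and -100% = no enzyme wells; top concentration of the series not given in the record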
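Sfp 15 nM + cpd, 15 min RT; start w/ rhodamine-CoA 5 uM, BHQ-2-YbbR 12.5 uM (final); 50 mM Hepes pH 7.6, 10 mM MgCl2, 0.01% NP-40, 0.01% BSA; read 525/598 nm at 0 and 30 min.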
gsp agonist: activates gsp, the McCune-Albright syndrome mutation; gsp mutant cells, cAMP HTRF, 30 min; control for the full effect not named in the record; Potency, µM (highest dose often 76.9 µM), inactives show top-dose activation (cAMP increase), hits mostly activators; actives 0.13% (n = 340,000); active = well fitted activation curve with a large enough effect; inconclusive = small, poorly fitted or top-dose-only effect, or another doubt; inactive = no such curve, though single readings can be large or run the other way; cell line not stated here;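 also: phosphodiesterase inhibitor Ro 20-1724 added with compounds to block cAMP breakdown; potency is read from the fitted curve at half-maximal effect; nearly all actives have a fitted effect of over 60% in size; about a fifth of the inactives were tested at one dose only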
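Cells stably selected in G418 were plated at 2000/well, grown 16-24 hr, then given compounds in DMSO with the PDE inhibitor […] (300 uM solution added) for 30 min at 37C; cAMP was read by HTRF.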
ClpP mod: qHTS Assay for Activators of ClpP. ATP-dependent Clp protease proteolytic subunit (Bacillus subtilis (strain 168)), P80244. purified B. subtilis ClpP, FRET peptide cleavage, 20 min. Potency, µM (highest dose often 57.5 µM), for inactives: at the top dose activity change, negative = active. actives 1.9% (n = 340,000); active = well fitted falling curve with a large enough effect; inconclusive = small, poorly fitted or top-dose-only effect; inactive = no such curve, though single readings can be large or run the other way; also: potency is read from the fitted curve at half-maximal effect; the source files actives as falling curves though it sought activators and does not explain the sign; nearly all actives have a fitted effect of over 65% in size; many hits overshoot -100%
Target sequence (P80244 whole entry, looked up): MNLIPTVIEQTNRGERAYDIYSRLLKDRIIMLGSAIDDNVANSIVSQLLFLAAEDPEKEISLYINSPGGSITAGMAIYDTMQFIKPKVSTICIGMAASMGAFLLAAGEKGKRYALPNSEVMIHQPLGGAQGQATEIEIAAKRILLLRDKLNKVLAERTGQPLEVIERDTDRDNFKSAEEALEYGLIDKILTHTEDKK
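Purified B. subtilis ClpP, 10 microg/mL final in Tris/HCl pH8 with KCl, BSA, glycerol and Tween-20, cleaved an Abz/nitrotyrosine-quenched decapeptide. Fluorescence (ex 320, em 430) was read at 0 and 20 min at room temperature. Delta was normalized to 5.8 microM ADEP and DMSO/no-enzyme controls.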
Menin-MLL FL inh: displaces fluorescein MLL peptide from human menin; Fluorescence polarization, fluorescein-MLL peptide displacement from menin; FP activity change, % at 61.4 µM; 290,000 tested, under 10 active; AID 1766; inconclusive = falling polarisation curve, or a change in total fluorescence; inactive = total fluorescence flat and polarisation flat or rising; no compound was filed as active; the % refers to the polarisation; negative = inhibition;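 also: % of control where 0% means no effect; inhibitors lower the polarisation; unlabelled MLL peptide was the positive control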
CtBP-E1A blk: CtBP/E1A binding inhibition; AlphaScreen GST-E1A/His-CtBP binding, 1536-well; stronger effect = lower value; control for the full effect not named in the record; activity change, % (no concentration beside the values); actives 0.49% (n = 340,000); AID 651724; in the data active means activity change below about -65%; inconclusive means about -30% to -65%; inactive means above about -30%; also: % is scaled to controls: 0 for no effect and ±100 for the full control effect; compound concentration not given in the record
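Protein mix (5X: 125 nM each GST-E1A, His-CtBP) was incubated with pinned compound 2 h at 37 deg C in dark, in 50 mM Tris pH 8.0 buffer with 300 mM NaCl. Glutathione donor and nickel acceptor beads followed; AlphaScreen signal read after 1 h.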
gsp antagonist: antagonizes gsp, the McCune-Albright syndrome mutation; gsp-mutant cells, cAMP HTRF, 30 min; control for the full effect not named in the record; Potency, µM (titrated, usually from 76.9 µM), inactives show at the highest dose activity change, negative = inhibition, hits mostly inhibitors; actives 0.4% (n = 340,000); AID 624288; active = falling curve of any shape with a large fitted effect; inconclusive = falling curve, mostly with a smaller effect; inactive = flat or rising curve; cell line not stated here;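 also: intracellular cAMP measured with PDE inhibitor Ro 20-1724 present during compound exposure; potency is read from the fitted curve at half-maximal effect; % is scaled to controls: 0 for no effect and ±100 for the full control effect; nearly all actives have a fitted effect of over 65% in size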
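Cells, 2000/well, grown 16–24 h in DMEM 10% FBS with 0.5 mg/ml G418, then compounds plus […] (300 uM addition stock), 30 min at 37C. cAMP read by HTRF (cAMP-d2 and anti-cAMP antibody-K in lysis buffer) after 30 min RT.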
TRPV1 PAM: human TRPV1 potentiation; potentiation, % at 8.33 µM; AID 540277; actives 0.02% (n = 320,000); TRPV1-expressing cells, Fluo-8 calcium influx, capsaicin EC20 potentiation; host cell line not named in the record; control for the full effect not named in the record; Q8NER1; active means potentiation above 80%; inconclusive means 30% to 80%; inactive means below 30%; also: 0% is about no effect
Target sequence (Q8NER1 whole entry, looked up): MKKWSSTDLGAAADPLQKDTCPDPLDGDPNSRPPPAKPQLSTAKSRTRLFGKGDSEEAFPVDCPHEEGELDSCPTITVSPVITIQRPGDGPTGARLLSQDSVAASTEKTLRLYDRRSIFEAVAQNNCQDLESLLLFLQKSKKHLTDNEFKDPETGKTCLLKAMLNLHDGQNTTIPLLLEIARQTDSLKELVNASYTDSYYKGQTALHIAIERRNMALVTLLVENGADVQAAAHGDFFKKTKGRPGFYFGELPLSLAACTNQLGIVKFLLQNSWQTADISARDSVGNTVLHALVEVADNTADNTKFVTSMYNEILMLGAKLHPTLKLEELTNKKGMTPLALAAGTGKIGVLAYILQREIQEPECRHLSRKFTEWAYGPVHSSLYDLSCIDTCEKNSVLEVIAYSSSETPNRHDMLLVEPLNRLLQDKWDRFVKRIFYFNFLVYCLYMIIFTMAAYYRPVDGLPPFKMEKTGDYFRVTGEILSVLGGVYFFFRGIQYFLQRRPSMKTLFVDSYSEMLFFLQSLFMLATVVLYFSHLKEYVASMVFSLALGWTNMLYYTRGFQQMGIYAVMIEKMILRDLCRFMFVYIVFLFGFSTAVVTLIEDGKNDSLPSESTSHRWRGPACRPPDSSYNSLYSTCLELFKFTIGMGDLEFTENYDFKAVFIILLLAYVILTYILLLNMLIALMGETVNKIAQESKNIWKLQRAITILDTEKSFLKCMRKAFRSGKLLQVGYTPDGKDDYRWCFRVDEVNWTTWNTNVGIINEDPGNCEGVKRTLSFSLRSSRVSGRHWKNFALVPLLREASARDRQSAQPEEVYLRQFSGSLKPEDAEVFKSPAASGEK
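Fluo-8 calcium influx in TRPV1-expressing cells, kinetic read (ex 480/em 520 nm). Compound added and read 3 min for agonist activity, followed by capsaicin at EC20 final and 2 min further read for enhancement.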
* = called active by the depositor; ? = inconclusive; . = not tested or not shown; & = joins results of further samples; [ ] = remark or other dose.

SMILES | Sfp inh | gsp agonist | ClpP mod | Menin-MLL FL inh | CtBP-E1A blk | gsp antagonist | TRPV1 PAM
CCN(CC)C(=O)COc1ccc(/C(C)=N/Nc2ncc(Cl)cc2Cl)cc1 | 79µM* | ? | -4.1% | -4.8 | -3 | -34% | 2
CSc1ccccc1OCc1cc(C(=O)NCCC2CCCCO2)no1 (stereo not given) | -1% | -10% | -4.4% | . | -2 | -3% | -1
CC(=O)c1c(N2CCN(C)CC2)nc(=S)n(-c2cc(C)ccc2C)c1C | 5% | 1%[15.4 µM] | . | ? | 6 | 1% | 7
CN(C(=O)c1cccc(NC(=O)Cc2ccc(NC(=O)C3CCCN(C(=O)C4CC4)C3)cc2)c1)C1CCC1 (stereo not given) | . | . | -1.7% | . | 4 | 1% | .
O=c1[nH]c(CN(CCO)CCO)nc2c1C1(CCCCC1)Cc1ccccc1-2 | -4% | -28% | -1.4% | 6.5 | -3 | -4% | 5
CC(C)(C)CN1C(=O)C(=O)NC[C@@H]1CCCCN | . | ? | -1.2% | . | -7 | -4% | .
COc1cccc2c(=O)c3ccccc3oc12 | 14%&19% | . | ? | 1.7&-0.4 | -15 | 8% | -3&6
Cc1ccc(S(=O)(=O)CCC(=O)OCc2nnc(-c3ccccc3)o2)cc1 | . | -2%[15.4 µM] | -1.4% | . | 8 | -14% | .
CC1=NN(C(=O)Cn2nc([N+](=O)[O-])c(Br)c2C)C(O)(C(F)(F)F)C1 (stereo not given) | 19% | -48% | -2.7% | ? | 1 | 9% | 3
CCC(C)c1ccccc1NC(=O)CN(CC)CC(=O)Nc1ccc2c(c1)OCCO2 (stereo not given) | . | 24%[15.4 µM] | 1.8% | . | 1 | -15% | .
CCC(=O)N1CCc2cc(Br)cc(S(=O)(=O)N(C)c3ccc(OC)cc3OC)c21 | -3% | -7%[15.4 µM] | . | 1.4 | -5 | ? | ?
Nc1c(Cl)cc(C2=NCCn3c2c2ccc(C(F)(F)F)cc2[n+]3[O-])cc1Cl | . | 25% | -0.9% | . | -14 | -10% | -10
CCc1ccc(C(C(=O)NC(C)(C)CC)N(Cc2ccco2)C(=O)Cn2nnc3ccccc32)cc1 (stereo not given) | 5% | -4%[15.4 µM] | -6.4% | -1.5 | -2 | -24% | -9
O=C(Nc1ccc(Cl)cc1)N1CCN(c2ncccn2)CC1 | 23% | 0% | -2.4% | -0.3 | -1 | -2% | -5
Cc1ccc(-n2c([C@@H]3C[C@H]3c3ccccc3)n[nH]c2=S)cc1 | ? | -7% | 0.6% | -0.1 | -1 | -17% | 10
CC(Oc1ccc(Cl)cc1Cl)C(=O)/C=C/N(C)C (stereo not given) | 10% | -56%[inhibitor] | 7.9% | 7.9 | 2 | -12% | -13
N#Cc1c(NC(=O)COC(=O)c2ccc(O)cc2O)sc2c1CCC2 | . | -9% | -2.0% | . | -3 | -16% | 23
NC(=O)c1nn(-c2cccc(Cl)c2)c(=O)cc1O | -9% | 13% | -3.6% | 5.1 | 6 | -2% | ?
CN1CCC(=NNC(=O)CN(c2ccc([N+](=O)[O-])cc2)S(=O)(=O)c2ccccc2)CC1 | 14% | 27% | . | -0.8 | -5 | 9% | 5
Cc1ccc(-n2nnnc2SCc2nc3sc(C)c(C)c3c(=O)[nH]2)cc1 | -4% | 0% | 3.5µM* | 12 | 3 | 8% | 4
O=C(NC(=S)Nc1ccccc1OC(F)F)c1ccc2c(c1)OCO2 | . | 12%[15.4 µM] | 1.0% | . | -1 | 7% | .
CCOc1ccccc1/C=N/n1c(C)nc2ccccc2c1=O | 7% | 5% | 0.8% | 3.0 | 1 | 2% | 2
Brc1cccc(/C=N/Nc2nn[nH]n2)c1 | ? | -12% | 0.4% | 1.3 | . | 2% | -4
O=C(c1ccc(F)cc1)n1c(NCc2ccccc2)n[nH]c1=S | 7% | 2%[15.4 µM] | -4.9% | 1.1 | 0 | -47% | 4

Compound profiles (already shown). Order of values: Sfp inh | gsp agonist | ClpP mod | Menin-MLL FL inh | CtBP-E1A blk | gsp antagonist | TRPV1 PAM
N#Cc1c(NC(=O)COC(=O)c2ccc(O)cc2O)sc2c1CCC2 reads . | -9% | -2.0% | . | -3 | -16% | 23
Cc1ccc(-n2c([C@@H]3C[C@H]3c3ccccc3)n[nH]c2=S)cc1 reads ? | -7% | 0.6% | -0.1 | -1 | -17% | 10

Remaining list, next part.
SMILES | Sfp inh | gsp agonist | ClpP mod | Menin-MLL FL inh | CtBP-E1A blk | gsp antagonist | TRPV1 PAM
Cc1ccc(CNC(=O)C(=O)NCC2CCCO2)cc1 (stereo not given) | 14% | -48%[inhibitor] | 78% | 4.5 | 1 | 15% | 8
CCN(Cc1ccccc1)C(=O)COC(=O)[C@@H]1CCCN1C(=O)c1cccs1 | . | 14% | . | . | -4 | 5% | .
O=c1c2c(-c3cccs3)csc2ncn1/N=C/c1ccccn1 | . | -7%[15.4 µM] | . | . | 4 | -2% | .
O=C(COC(=O)C1=COCCO1)Nc1cc(S(=O)(=O)N2CCCCC2)ccc1Cl | 3% | -7%[15.4 µM] | -3.7% | 1.9 | 8 | 7% | 0
COc1ccc(-c2ccc(CN3C(CC(C)C)C(=O)N(Cc4cn(Cc5ccco5)nn4)CCS3(=O)=O)cc2)cc1OC (stereo not given) | . | -64%[inhibitor] | -4.4% | . | 5 | . | .
O=C(Nc1ccc2ccccc2c1)N1CCN(c2ncccc2C(F)(F)F)CC1 | 1% | 11% | ? | 2.7 | 2 | -10% | 11
COc1ccc(C(CNC(=O)C2COc3ccccc3O2)N2CCCC2)cc1 (stereo not given) | . | 2% | 1.1% | . | . | 5% | -10
COC(=O)C1C2C=CC3(CN(CCc4ccccc4)C(=O)C13)O2 (stereo not given) | 17% | -13% | -1.3% | 0.9 | -3 | -5% | -4
COc1ccc(CN2CCNC(=O)C2CC(=O)NCCc2nc(C)c(C)s2)cc1C (stereo not given) | -13% | -20% | -3.0% | 5.6 | -7 | 6% | -3
O=C(NCc1ccncc1)C(=O)Nc1nc2ccccc2s1 | 9% | 14% | -4.6% | 2.2 | -2 | -12% | 8
O=C(OCCOCCN=C1NS(=O)(=O)c2ccccc21)c1ccccc1 | 13% | 1% | . | 2.4 | 5 | -1% | 0
O=C(OCc1cc2ccccc2[nH]c1=O)C1CCCO1 (stereo not given) | 9% | -18% | ? | 3.2 | -2 | -3% | -14
COc1ccc(C#Cc2cnc3c(c2)C(=O)N([C@H](C)CO)C[C@H](C)[C@@H](CN(C)C(=O)Nc2cccc(OC)c2)O3)cc1 | . | -70%[inhibitor] | -7.5% | . | 3 | . | .
CC1(C)C(c2ccccc2)=NC(c2ccccc2)N1O (stereo not given) | -3% | 22% | -2.0% | ? | -17 | 3% | ?
COc1ccc(C(=O)c2sc(Nc3ccccc3)nc2N)cc1 | -23% | -30% | -0.4%&-4.0% | 3.1 | . | -10% | -4
Cc1ccc(C(=O)NCCN2CCCC2)cc1 | 10% | -23% | -1.2% | 7.0 | 4 | 6% | 10
CCCCOc1cccc(NC(=O)CSc2nccn2C)c1 | 4% | -19% | -1.0% | 2.1 | -4 | 0% | 3
CC(C)=Cc1oc2ccc([N+](=O)[O-])cc2c1N1CC(C)OC(C)C1 (stereo not given) | -9% | -7% | 0.8% | -0.4 | 3 | 1% | -4
O=CNc1cc2c(cc1Br)-c1ccccc1C2O (stereo not given) | . | 3%[15.4 µM] | 4.4% | . | 0 | 4% | .
CN(C)c1ccc(/C=C/c2cc[n+](C)cc2)cc1 | 3% | 13% | 1.2% | ? | -3 | ? | 8
C=CCn1c(SCC(=O)N(C(C)CC)C2CCS(=O)(=O)C2)nc2ccccc2c1=O (stereo not given) | . | 18% | -8.4% | . | 6 | -5% | 1
CC(NC(=O)COC(=O)c1cc2ccccc2cc1O)c1ccccc1 (stereo not given) | . | ? | ? | . | 0 | -2% | 6
Cc1cccc2cc(C(c3nnnn3C(C)(C)C)N3CCN(C(=O)c4ccco4)CC3)c(=O)[nH]c12 (stereo not given) | 56µM* | 13% | -17% | 2.7 | 12 | -11% | -1
Cc1ccc(C(=O)O)cc1-c1ccc(/C=C2\SC(=O)N(CC(=O)Nc3ccccc3)C2=O)o1 | 18µM* | -10%[15.4 µM] | . | ? | -1 | ? | 5
CCCOc1ccc([N+](=O)[O-])cc1C1NC(=S)NC(c2ccccc2)=C1C(=O)OCC (stereo not given) | 7% | -1% | 1.7% | -0.2 | -10 | -2% | -11
Cc1ccc(CN2CCC[C@]3(N[C@H](c4ccc(C(F)(F)F)cc4)[C@@H]4C(=O)N(C)C(=O)[C@@H]43)C2=O)cc1 | . | -29% | 0.8% | . | -4 | . | .
COc1nc(OCCNS(=O)(=O)c2ccc(C)cc2)nc(N(C)C)n1 | 18% | -9% | 0.5% | 2.3 | 0 | -24% | .
CSc1nsc(SC)c1NC(=O)OCC1CCCO1 (stereo not given) | 56µM* | 25% | 0.2% | 0.6 | 2 | -2% | 1
CCOC(=O)Nc1ccc2c(c1)N(C(=O)N(C)C)c1ccccc1CC2 | -4% | 1% | -6.3% | 4.2 | -1 | -4%[15.4 µM] | -4
COc1ccc(C(=O)CN(C(=O)c2ccc(Cl)cc2)N2C(=O)c3ccccc3C2=O)cc1 | 19% | -15% | -2.5% | 3.7 | 4 | -16% | 23
CCCNC(=O)OCc1cccnc1Sc1ccc(C)cc1 | 10% | -25%[15.4 µM] | . | 0.9 | 9 | 8% | 5
O=c1c2cc(Cl)ccc2nc(-c2ccc(Cl)c(Cl)c2)n1O | 19% | 9% | -1.2% | 5.2 | 1 | 9% | 24
O=C(OCC(=O)N1CCOCC1)c1cc(-c2ccccc2)nc2ccccc12 | . | -17% | . | . | 14 | -13% | .
CCCN(CC(=O)Nc1ccccc1OC)C(=O)CC1CCCC1 | . | -26% | -1.2% | . | . | 0% | -22
CC(C)COC(=O)NCC12C=CC(O1)C1C(=O)N(c3ccc(Cl)cc3)C(=O)C12 (stereo not given) | 13µM* | -2% | -1.7% | 4.2 | 7 | 0% | -19
